# GIRK2 activ – opens human GIRK2 potassium channels; 0.05% of 63,000 active; HEK293-GIRK2 thallium flux, Thallos fluorescence; AID 1259325; calls only for hits at 25 µM; P48051;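 active means among the strongest 0.2% of first-round signals and kept after retests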;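 further: first round at about 10 µM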
# Target sequence (P48051 whole entry, looked up): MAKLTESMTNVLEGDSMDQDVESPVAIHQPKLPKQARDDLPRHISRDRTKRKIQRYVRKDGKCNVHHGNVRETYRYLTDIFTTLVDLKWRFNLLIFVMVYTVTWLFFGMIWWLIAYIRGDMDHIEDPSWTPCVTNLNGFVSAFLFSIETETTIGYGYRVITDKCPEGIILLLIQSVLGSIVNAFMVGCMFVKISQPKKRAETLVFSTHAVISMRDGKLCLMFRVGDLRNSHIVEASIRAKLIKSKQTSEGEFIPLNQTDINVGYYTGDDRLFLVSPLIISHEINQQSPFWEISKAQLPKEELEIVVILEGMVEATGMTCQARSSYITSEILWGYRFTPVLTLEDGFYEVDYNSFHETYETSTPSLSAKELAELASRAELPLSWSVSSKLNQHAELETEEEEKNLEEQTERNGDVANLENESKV
# Calls only; i = inactive. These rows are one share of the data (hit frequency here may not be typical).
smiles | GIRK2 activ
CC(=O)Nc1ccc(S(=O)(=O)N2CC(Oc3nc4c(F)cccc4s3)C2)cc1 | i
COc1cccc(NC(=O)Nc2nc(-c3cc(Cl)sc3Cl)cs2)c1OC | i
CCOC(=O)c1cccc(NC(=O)Cn2ccn3nc(-c4ccc(OC)cc4)cc3c2=O)c1 | i
CCn1cnc2c(-c3ccccc3)cn(CC(=O)Nc3ccc(OC)c(OC)c3)c2c1=O | i
Cc1ccc(NC(=O)N2CCNC2=O)cc1N1CCCC1=O | i
CCC(C(=O)Nc1c(C)nc2sc(C)c(C)n2c1=O)c1ccccc1 (centres undefined) | i
COc1ccc(S(=O)(=O)Nc2cnc(Oc3ccccc3F)nc2)cc1Cl | i
C=CCn1c(=O)[nH]c2cc(C(=O)N3CCN(c4ccc(C(C)=O)cc4)CC3)ccc2c1=O | i
CCOc1ccc(NC(=O)NCC(O)c2sccc2C)cc1 (centres undefined) | i
COc1ccc(S(=O)(=O)CC(=O)Nc2cc(C)nn2-c2nc3ccccc3s2)cc1 | i
Cc1cc(C(=O)Nc2ccc(-n3nnc(C(=O)N4CCCC4)n3)cc2)c(C)o1 | i
CCOc1ccc(S(=O)(=O)N2CCCCCC2)cc1C | i
CCC(=O)N1CCc2ccc(NC(=O)/C=C/c3cccs3)cc2C1 | i
CCN(Cc1ccccc1)C(=O)Cn1nc2cc(-c3ccccc3)nc(C)n2c1=O | i
COc1cccc(N2CC(C(=O)N3CCC(Cn4ccnc4)CC3)CC2=O)c1 (centres undefined) | i
O=C1CCCC(=O)N1CCS(=O)(=O)N1CCN(S(=O)(=O)C2CC2)CC1 | i
O=C(CSc1ncn[nH]1)Nc1cccc(-c2nc3ccccc3s2)c1 | i
COc1cccc2cc(C(=O)N3CCN(CCn4cccn4)CC3)oc12 | i
COc1cccc(NC(=O)Cn2cccc(S(=O)(=O)N3CCCCCC3)c2=O)c1 | i
O=C(COc1cccc(C(F)(F)F)c1)N1CCN(c2ccc(-n3ccnc3)nn2)CC1 | i
Cc1nc(-n2nc(C3CC3)cc2NC(=O)CCC2CCCCC2)[nH]c(=O)c1C | i
COCCCN1COc2ccc3c(=O)c(Oc4ccccc4OC)coc3c2C1 | i
O=C(c1ccc(-n2cccc2)cc1)N1CC(c2nc(-c3ccco3)no2)C1 | i
CCC(C)NC(=O)Cn1cccc(-c2nc(-c3ccc(Cl)cc3)no2)c1=O (centres undefined) | i
CCOc1ccc(N2C(=O)C3N=NN(Cc4nc(-c5cccc(Br)c5)no4)C3C2=O)cc1 (centres undefined) | i
COc1cccc2c(NC(=O)c3ccccn3)cc(C)nc12 | i
COc1cc(/C=C/C(=O)NCCOc2cc(N3CCOCC3)ncn2)cc(OC)c1OC | i
CCOc1ccc(-c2ccc(N3CCN(S(=O)(=O)c4cccnc4)CC3)nn2)cc1 | i
Cn1cnc(S(=O)(=O)NCC2CCN(C(=O)/C=C/c3ccco3)CC2)c1 | i
O=C(NCC#CCN1CCOCC1)Nc1cccc(Cl)c1 | i

# Grouped by structure: the entries above containing a halogen (7)
smiles | GIRK2 activ
CC(=O)Nc1ccc(S(=O)(=O)N2CC(Oc3nc4c(F)cccc4s3)C2)cc1 | i
COc1cccc(NC(=O)Nc2nc(-c3cc(Cl)sc3Cl)cs2)c1OC | i
COc1ccc(S(=O)(=O)Nc2cnc(Oc3ccccc3F)nc2)cc1Cl | i
O=C(COc1cccc(C(F)(F)F)c1)N1CCN(c2ccc(-n3ccnc3)nn2)CC1 | i
CCC(C)NC(=O)Cn1cccc(-c2nc(-c3ccc(Cl)cc3)no2)c1=O (centres undefined) | i
CCOc1ccc(N2C(=O)C3N=NN(Cc4nc(-c5cccc(Br)c5)no4)C3C2=O)cc1 (centres undefined) | i
O=C(NCC#CCN1CCOCC1)Nc1cccc(Cl)c1 | i

# The results go on.
smiles | GIRK2 activ
O=C(Cn1cccc(-c2nc(-c3ccc(Cl)cc3)no2)c1=O)Nc1ccccc1 | i
Cc1ccc(N2CCn3c2nc2c3c(=O)n(CC(=O)O)c(=O)n2C)cc1C | i
O=C(c1cnn2c1OCCC2)N1CCN(Cc2ccncc2)CC1 | i
COc1cc2[nH]c(=O)n(CCCCC(=O)N3CCN(c4cccc(C)c4)CC3)c(=O)c2cc1OC | i
Cc1ccc(-n2nnc(C(=O)Nc3ccc([N+](=O)[O-])cc3)c2C)cc1 | i
Cc1ccc(/C=C/S(=O)(=O)N2CCN(c3c(C)nn(C4CCS(=O)(=O)C4)c3C)CC2)cc1 (centres undefined) | i
CC1Oc2ccccc2OC1C(=O)NCC#CCN(C)C (centres undefined) | i
O=C(CSCc1ccccc1)NCc1cc(-c2ccncc2)n(C2CCCC2)n1 | i
O=C(CN1CCN(C(=O)c2ccc3c(c2)OCO3)CC1)c1cccs1 | i
COc1ccc(OCc2ccc(-c3nc(C#N)c(N4CCOCC4)o3)o2)cc1 | i
COc1ccc(NCCN2N=C(c3ccccc3)Cn3c2nc2c3c(=O)n(C)c(=O)n2C)cc1 | i
COc1ccc(S(=O)(=O)N2CCC(CN3C(=O)c4cccc5cccc(c45)C3=O)CC2)cc1 | i
Cc1ccc(NC(=O)CC2CC2)cc1-c1ccc(C(=O)NCC2CC2)cc1 | i
O=C(NCCC(c1ccccc1)c1ccccc1)C(=O)Nc1ccc(C(F)(F)F)cc1 | i
CCNc1nc2c(c(=O)n(C)c(=O)n2C)n1CC(O)COc1ccc(Cl)cc1 (centres undefined) | i
O=C(Nc1cccc(O)c1)c1ccccc1Br | i
COC(=O)C1=COC(O[C@@H]2O[C@H](CO)[C@@H](O)[C@H](O)[C@H]2O)/C2=C/COC(=O)CC3C(C(=O)OC)=COC(O[C@@H]4O[C@H](CO)[C@@H](O)[C@H](O)[C@H]4O)/C3=C/COC(=O)CC12 (some centres undefined) | i
Cc1ccc(Cl)cc1NC(=O)CSc1nccn(-c2cccc(F)c2)c1=O | i
CCN(CC)CCN(C(=O)c1cccs1)c1nc2ccc(S(C)(=O)=O)cc2s1 | i
O=C(c1ccc(=O)[nH]n1)N1CC(c2nc(Cc3ccccc3)no2)C1 | i
Cc1c(C(=O)Nc2ccc(C(=O)O)cc2)oc2c1C(=O)CC(C)(C)C2 | i
Cc1ccccc1-c1noc(-c2cccn(CC(=O)Nc3ccccc3Cl)c2=O)n1 | i
CCOc1ccc(-n2c(-c3ccccc3)cn3c4c(=O)n(CC)c(=O)n(C)c4nc23)cc1 | i
O=S(=O)(c1ccc(Cl)cc1)N1CCN(c2cnccn2)CC1 | i
O=C(OCc1ccccc1)c1cc2cc(Br)cc(Br)c2oc1=O | i
Cc1csc(CN2CCN(C(=O)c3cc(=O)c4ccccc4o3)CC2)n1 | i
CCn1c(=O)c(C(=O)Nc2ccc(C)cc2Br)c(O)c2sccc21 | i
Cc1nnc(NC(=O)c2nnn(-c3ccc(OC(F)(F)F)cc3)n2)s1 | i
Nc1nc(N2CCC3(CC2)OCCO3)ncc1C(=O)NCc1ccccc1 | i
COc1cccc2sc(N(C)CC(=O)NC(C)c3ccccc3)nc12 (centres undefined) | i

# Carrying on.
smiles | GIRK2 activ
COc1ccc(OC)c(CNc2nccc(-n3nc(C)cc3C)n2)c1 | i
O=C(Nc1nnc(-c2ccc(Br)s2)o1)Nc1ccccc1F | i
COC(=O)C1CN(C(=O)c2cnn3c2OCCC3)C1 | i
COc1cc2nc3sc(NCc4ccccc4)nn3c(=O)c2cc1OC | i
Cc1nn(C)c(=O)c2nn(-c3ccccc3Cl)c(C)c12 | i
CCCc1cc(NCCCn2ccnc2)n2nc3nc(C)cc(C)c3c2n1 | i
COc1nn(C)cc1C(=O)N(Cc1cccs1)Cc1cccn1C | i
Cc1cc(C(=O)N2CCN(C3=NN=C(c4ccccc4)CS3)CC2)c(C)o1 | i
O=C(c1snc2c(=O)n(Cc3ccccc3)c(=O)[nH]c12)N1CCN(c2ccccc2)CC1 | i
Cc1[nH]nc(S(=O)(=O)Nc2ccc(Cl)cc2)c1C(=O)Nc1cccc(OC(F)(F)F)c1 | i
COc1ccc(CCNC(=O)N2CCC(C(=O)Nc3cc(C)on3)CC2)cc1 | i
COc1ccc(C(=O)NC2CCN(c3ncccc3-c3nc(C)no3)CC2)c(C)c1 | i
COc1ccccc1S(=O)(=O)N1CCCSCC1CN(C)C (centres undefined) | i
COc1ccccc1CNC(=O)C1CSCCC(=O)N1 (centres undefined) | i
O=C(CN1N=NC2C(=O)N(c3ccc(F)c(F)c3)C(=O)C21)Nc1ccc2c(c1)OCCO2 (centres undefined) | i
CC(C(=O)Nc1ccc(Cl)c([N+](=O)[O-])c1)n1nc(-n2cccn2)ccc1=O (centres undefined) | i
Cc1cc(C)n(C(C)CNC(=O)c2cccc(Br)c2)n1 (centres undefined) | i
COC(=O)c1cc(O)cc(OC)c1Oc1c(Cl)c(C)c(Cl)c(O)c1C(=O)O | i
O=C(c1ccco1)N1CCN(c2ncnc3c2nnn3-c2ccc(Cl)cc2)CC1 | i
Cc1nn(C2CCS(=O)(=O)C2)c(C)c1N1CCN(S(=O)(=O)C2CCCCC2)CC1 (centres undefined) | i
COc1cc2ncc(C#N)c(N3CCC(C(=O)N4CCC(Cc5ccccc5)CC4)CC3)c2cc1OC | i
CC(C)n1c(=O)c2ccccc2n(Cc2nc(-c3cccc(Br)c3)no2)c1=O | i
O=C(NCc1cccc2ccccc12)N1C2CCC1COC2 | i
COc1cccc(C(=O)N2CCN(CC(O)C3CC3)CC2)c1 (centres undefined) | i
COCCn1c(-c2ccc(Cl)cc2Cl)nc2oc3cc(OC)ccc3c(=O)c2c1=O | i
COc1ccc(NC(=O)Cn2cccc(S(=O)(=O)N3CCCC3)c2=O)cc1 | i
CCC(C(=O)N1CCN(Cc2nc(C)cs2)CC1)c1ccccc1 (centres undefined) | i
Cc1ccc(C)c(NC(=O)Cn2c(-c3ccc(F)cc3)nc3c(c2=O)CCN(Cc2ccccc2)C3)c1 | i
CC(=O)c1ccc(NC(=O)COc2coc(CSc3nncn3C)cc2=O)cc1 | i
CCc1ccccc1NC(=O)Cn1c(=O)n(CC2CCC(C(=O)NC)CC2)c(=O)c2sccc21 (centres undefined) | i

# More structures.
smiles | GIRK2 activ
CCOC(=O)CCC(=O)N1CC(c2nc(-c3ccc[nH]c3=O)no2)C1 | i
Cc1cc(=O)[nH]c(-n2nc(-c3ccco3)cc2NC(=O)c2ccc(Cl)cc2Cl)n1 | i
COc1ccc(Cl)cc1NC(=O)CSc1nccnc1N1CCN(c2ccccc2)CC1 | i
COC(=O)c1ccc(NC(=O)CN(C)c2nc3c(OC)cccc3s2)cc1 | i
NC(=O)c1ccccc1NC(=O)c1coc(NC(=O)c2cnccn2)n1 | i
Cn1c(=O)c2cc(C(=O)Nc3ccc(Cl)cc3)sc2n(C)c1=O | i
COc1ccc(-n2nnnc2CN2CCN(C(=O)NC3CCCCC3)CC2)cc1 | i
COc1cccc(NC(=O)Cc2csc(SCc3ccncc3)n2)c1 | i
COc1cc(N2CCN(C(C)C)CC2)ccc1Nc1nc(Nc2ccc(F)cc2C(N)=O)c2cc[nH]c2n1 | i
CC(=O)c1cccc(NC(=O)Cn2cccc(S(=O)(=O)N3CCC(C)CC3)c2=O)c1 | i
O=C(CN1CCN(Cc2nc3ccccc3[nH]2)CC1)Nc1cccc(C(F)(F)F)c1 | i
CC(=O)Nc1nc2ccc(S(=O)(=O)NC3CCCCC3)cc2s1 | i
Cc1ccc(-n2cc(C(=O)N3CCC(NC(=O)Cc4cccs4)CC3)nn2)cc1 | i
CC(C)(C)c1cc(C(F)(F)F)c(C#N)c(SCC(N)=O)n1 | i
O=S(=O)(NC1CCN(c2nccs2)CC1)c1ccccc1C(F)(F)F | i
COc1ccc(CCC(=O)Nc2ccc3c(c2)CCCN3S(=O)(=O)c2ccccc2)cc1 | i
CCOC(=O)CCC(=O)Nc1ccc(-n2nnn(C)c2=O)cc1 | i
COc1cccc(-c2noc(Cn3c(=O)n(-c4cccc(OC)c4)c(=O)c4sccc43)n2)c1 | i
O=C(c1ccc2[nH]ccc2c1)N1CC(c2nc(Cc3ccccc3)no2)C1 | i
Cn1nc(-c2ccc(F)cc2)cc1C(=O)NCC1(c2ccc(F)cc2)CC1 | i
COC(=O)c1sc2cccc(F)c2c1S(=O)(=O)N1CCN(c2ccccc2)CC1 | i
Cn1cc(OCc2ccccc2)c(=O)cc1C(=O)NCCc1ccc(S(N)(=O)=O)cc1 | i
O=S(=O)(NCCC(O)C1CC1)c1ccc(Br)cc1 (centres undefined) | i
O=C(NCCCn1cccc1)C1CC(=O)N(c2ccc(F)cc2)C1 (centres undefined) | i
O=C(NCC#CCN1CCCC1)NCc1ccc(F)cc1 | i
COCCN(Cc1ccoc1)C(=O)Nc1ccc(C(C)(C)C)cc1 | i
Cc1nc(-c2ccc(N3CCN(C(=O)CN(C)S(C)(=O)=O)CC3)nc2)no1 | i
COc1ccc(S(=O)(=O)C(C#N)c2nc3ccccc3nc2N2CCCC2)cc1 (centres undefined) | i
O=C(CSc1nnc(-c2ccncc2)n1-c1ccccc1)c1cc([N+](=O)[O-])cs1 | i
Cc1cc(Br)ccc1NC(=O)c1ccc(-n2ccnc2)nn1 | i

# (more compounds)
smiles | GIRK2 activ
COc1cccc(NC(=O)Nc2nc3ccc4nc(SC)sc4c3s2)c1OC | i
COc1ccc(NC(=O)NCCNc2cc(Nc3ccccn3)nc(C)n2)cc1 | i
CCN(CC)S(=O)(=O)c1ccc(-c2nc(C#N)c(NCc3ccc(C)cc3)o2)cc1 | i
COc1ccc(NC(=O)Cc2ccc(S(=O)(=O)C(C)C)cc2)cc1N1CCCC1=O | i
CCCCN1C(SCC(=O)NCc2cccs2)=NS(=O)(=O)c2ccccc21 | i
COc1ccccc1NC(=O)C1=C(C)Nc2ncnn2C1c1ccc(C(F)(F)F)cc1 (centres undefined) | i
Cc1nn(-c2ccccc2)c2ncc(C(=O)Nc3ccc4c(c3)OCO4)c(Cl)c12 | i
CC1(C)Cc2cccc(OCC(=O)N3CC(c4nc(-c5ccco5)no4)C3)c2O1 | i

# Screening results: PubChem, Vanderbilt University
